High-throughput results (PubChem BioAssay)
HPGD inh – HPGD (human) dehydrogenase inhibition; AID 894; P15428; purified HPGD, NADH fluorescence kinetic, PGE2 substrate; 150,000 compounds, 4.3% hits; Potency, µM, for inactives: at the highest dose activity change, negative = inhibition, most hits filed as inhibitors; active = well fitted inhibition curve with a large enough effect (not every such curve was filed as active); inconclusive = small, poorly fitted or top-dose-only effect, or another doubt; inactive = no such curve, though single readings can be large or run the other way;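 also: top concentration of the series not given in the record; plate controls included wells without enzyme; inactives centre near -10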
Target sequence (P15428 whole entry, looked up): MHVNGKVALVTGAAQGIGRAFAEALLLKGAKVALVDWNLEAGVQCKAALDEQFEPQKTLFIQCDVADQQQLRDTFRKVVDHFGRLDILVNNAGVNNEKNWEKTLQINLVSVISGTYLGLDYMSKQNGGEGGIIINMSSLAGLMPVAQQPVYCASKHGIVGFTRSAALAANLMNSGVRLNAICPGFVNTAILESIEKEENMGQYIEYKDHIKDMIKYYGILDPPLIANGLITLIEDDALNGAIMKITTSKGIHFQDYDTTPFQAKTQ
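NADH formation kinetics: reaction with 30 uM PGE2 and 1 mM NAD+ (final), 20 nM enzyme, Tris-HCl pH 8 with Tween 20, after 15 min compound preincubation at room temperature. Fluorescence change, last versus first of five reads.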
Numbers without * were called inactive; ? = inconclusive; & = joins results of further samples. % is scaled to controls: 0 for no effect and ±100 for the full control effect; potency is read from the fitted curve at half-maximal effect.

SMILES	HPGD inh
Cc1c(NC(=O)c2cc(=O)[nH]c(=O)[nH]2)c(=O)n(-c2ccccc2)n1C	0%
Cc1cc(C(=O)COC(=O)CC2Sc3ccccc3NC2=O)c(C)n1-c1ccc2c(c1)OCO2 (configuration not stated)	-12%
CC(C)(C)n1ncc2c(=O)n(Cc3c(F)cccc3Cl)cnc21	-15%
COC(=O)COc1ccc(/C=C2/SC(=O)N(CC(=O)N3CCCC3)C2=O)cc1Br	-17%
Cc1cc(C(F)(F)F)c2c(n1)sc1c(O)cc(=O)[nH]c12	-5%
O=C(NCCO)c1ccc(Cl)cc1	-3%
Cc1cccc(C(=O)NC(NCCc2ccccc2)C(Cl)(Cl)Cl)c1 (configuration not stated)	-21%
COc1ccc(OCC(=O)Nc2cccc(-c3nc4ccccc4o3)c2)cc1	?
CN(C)c1cccc(C(=O)Nc2ccc(N3CCOCC3)cc2)c1	-4%
Cc1cccc(OCCCCCNCCO)c1	-10%
CCCc1ncc(C(O)(c2ccccc2)c2ccc(C)cc2)n1C (configuration not stated)	-11%
Cc1ccc(-n2c(Cl)c(Cl)nc(Cl)c2=O)cc1	2.5µM*
COC(=O)[C@H](C)[C@@H]1C[C@@]1(C)[C@@H](NC(=O)OCc1ccccc1)c1ccccc1	-4%&-4%
O=C(O)Cc1cccc(OCCCN(Cc2cccc(C(F)(F)F)c2Cl)CC(c2ccccc2)c2ccccc2)c1	-18%
O=C(Cc1coc2ccc3ccccc3c12)N1CCc2ccccc21	-20%
O=C(Nc1ccc(C2CC2(Cl)Cl)cc1)c1ccccc1Br (configuration not stated)	16µM*
O=C(Cn1cc(C(F)(F)F)ccc1=O)N/N=C/c1ccc(Cl)c(Cl)c1	-13%
O=C(Cn1cnc2c(oc3ccccc32)c1=O)NCC1CCCO1 (configuration not stated)	0%
COc1ccc(NC(=O)CC2Oc3ccc(C)cc3NC2=O)cc1 (configuration not stated)	-14%
Cc1cccc(-c2nnc(SCC(=O)N3c4ccccc4CCc4ccccc43)n2C)c1	-3%
COC(=O)c1c(C)[nH]c(C(=O)CSc2nnnn2-c2ccccc2)c1C	-11%
COc1ccc(OC)c(C(=O)C2COC(=O)C2)c1 (configuration not stated)	-11%
O=C(Nc1nnc(N2CCCCCC2)s1)c1cc(-c2ccc(Br)cc2)on1	-7%
COc1cccc(NC(=O)c2cccc(OC)c2OC)c1	-12%
Cc1ccc(C(=O)NC(C)c2ccccc2)cc1Br (configuration not stated)	-30%
Cc1ccc(N2OC3C(=O)NC(=O)C3C2c2ccco2)cc1 (configuration not stated)	-13%
Cc1ccc(CNC(=O)c2sc3ccc(S(=O)(=O)N4CCCCC4)cc3c2N)cc1	-25%
O=C(C1Cc2ccccc2CN1S(=O)(=O)c1cccs1)N1CCCCCC1 (configuration not stated)	-12%
Cc1cc(C(=O)N2CCC(C(F)(F)F)n3nccc32)on1 (configuration not stated)	-17%
CCOC(=O)c1ccc(NC(=O)CN2C(=O)CNC2=O)cc1	-5%

7 compounds already listed, ordered by the value under HPGD inh, low to high:
SMILES	HPGD inh
Cc1ccc(CNC(=O)c2sc3ccc(S(=O)(=O)N4CCCCC4)cc3c2N)cc1	-25%
Cc1cccc(C(=O)NC(NCCc2ccccc2)C(Cl)(Cl)Cl)c1 (configuration not stated)	-21%
O=C(Cc1coc2ccc3ccccc3c12)N1CCc2ccccc21	-20%
Cc1cc(C(=O)N2CCC(C(F)(F)F)n3nccc32)on1 (configuration not stated)	-17%
CC(C)(C)n1ncc2c(=O)n(Cc3c(F)cccc3Cl)cnc21	-15%
Cc1cc(C(=O)COC(=O)CC2Sc3ccccc3NC2=O)c(C)n1-c1ccc2c(c1)OCO2 (configuration not stated)	-12%
COc1ccc(OC)c(C(=O)C2COC(=O)C2)c1 (configuration not stated)	-11%

Going on with the list:
SMILES	HPGD inh
CSc1ccc(Cl)c(C(=O)OCC(=O)NC2CC2)c1	-16%
C=CCc1c(C)nc(SC)nc1Nc1ccc(C(=O)O)cc1	-20%
CC1CCC/C(=C\Nc2ccc3c(c2)OCO3)C1=O (configuration not stated)	?
Cn1c(NCc2ccco2)nc2c1c(=O)n(Cc1ccc(Cl)cc1)c(=O)n2C	-4%
CCOC(=O)C1C(=O)NC(N2CCN(c3ccccc3)CC2)=NC1c1ccco1 (configuration not stated)	-4%
CCCCCC[n+]1c(-c2ccccc2)csc1Nc1ccccc1	-5%
CNc1ccccc1C(C)(C)c1cc(-c2cc(C)cc(C)c2)no1	-13%
COc1cccc(C2CC(c3ccc(C)cc3)n3nc(N)nc3N2)c1 (configuration not stated)	-1%
CC(C)c1ccc(NC(=S)NN2CCOCC2)cc1	-4%
COc1ccc(C(=O)N2CCC[C@@]3(CCN(C(=O)Nc4cccc(F)c4)C3)C2)cc1	-7%
CC(=O)C1=C(C)NC(=O)NC1c1cccc(O)c1 (configuration not stated)	-7%
O=C1c2nc3ccccn3c2C(=O)N1Cc1ccccc1	?
CCOC(=O)c1cc2c(ccn2C)n1CC(=O)N1CCN(c2cccc(C(F)(F)F)c2)CC1	-28%
CC1=Nc2ncnn2C(c2ccccc2)/C1=N\O (configuration not stated)	-9%
CCc1ccc(-n2nc3ccc(NC(=O)c4ccc5c(c4)OCO5)cc3n2)cc1	-19%
Cc1ccc(Cn2cnc3ccccc32)cc1C	-6%
CCCC(=O)NNC(=O)CCC(=O)NCc1ccccc1	1%
CC(NC(=O)c1cc2sccc2n1C)c1ccc2c(c1)OCCO2 (configuration not stated)	?
COc1ccc2cc3c(N)nn(C(=O)Cc4ccc(Cl)cc4)c3nc2c1	-20%
Cc1oc(-c2ccccc2F)nc1CS(=O)(=O)CC(=O)NCCCN(C)C1CCCCC1	-16%
CC(=O)Nc1cccc(NC(=O)c2ccc([N+](=O)[O-])cc2Cl)c1	-14%
COc1cc(C2CC(=O)Nc3cc(C)c(C)cc32)cc(OC)c1OC (configuration not stated)	-1%
O=C(CN1CCCCC1)Nc1ccccc1-c1ccccc1	-19%
COc1cc(CNCCN2CCOCC2)ccc1OCc1ccc(Cl)cc1	2%
Nc1nc(COc2ccccc2)cs1	-9%
O=C(O)CSC1CC(=O)N(c2ccc(Cl)cc2)C1=O (configuration not stated)	-2%
COC(=O)c1nc(NC2=NCCCCC2)n[nH]1	-3%
Clc1nc(Cl)nc(N(c2ccccc2)c2ccccc2)n1	-9%
CCCCCC(=O)N1CCN(CCN=CC2=C(O)CC(c3ccco3)CC2=O)CC1 (configuration not stated)	-4%
O=C(c1ccc2c(=O)n(-c3ccccc3)c(=O)[nH]c2c1)N1CCN(c2ccc(F)cc2)CC1	-10%

As a short view, some entries already given.
SMILES	HPGD inh
Clc1nc(Cl)nc(N(c2ccccc2)c2ccccc2)n1	-9%
CCCCCC(=O)N1CCN(CCN=CC2=C(O)CC(c3ccco3)CC2=O)CC1 (configuration not stated)	-4%
O=C(c1ccc2c(=O)n(-c3ccccc3)c(=O)[nH]c2c1)N1CCN(c2ccc(F)cc2)CC1	-10%

Returning to the listing, starting two compounds before the break.
SMILES	HPGD inh
CCCCCC(=O)N1CCN(CCN=CC2=C(O)CC(c3ccco3)CC2=O)CC1 (configuration not stated)	-4%
O=C(c1ccc2c(=O)n(-c3ccccc3)c(=O)[nH]c2c1)N1CCN(c2ccc(F)cc2)CC1	-10%
CCOc1c(Br)cc(CNc2ccc3c(c2)OCCO3)cc1OC	?
COc1ccc(N(C(=O)c2ccco2)S(=O)(=O)c2cc(OC)ccc2OC)cc1	-18%
CCOC(=O)c1sc(NC(=O)c2cncc(Br)c2)nc1C	-4%
CCOC(=O)CSc1nc2ccccc2c(=O)n1NC(=O)c1ccccc1	-10%
COc1ccc2nc(NC(=O)[C@@H]3CCCN3C(=O)c3cccs3)sc2c1	-2%
C=CCC(C)(O)c1ccco1 (configuration not stated)	-12%
O=c1oc(-c2ccccc2)nc2c1C1(CCCCC1)Cc1ccccc1-2	-15%
O=C(COc1ccccc1-c1ccccc1)NCCN1C(=O)S/C(=C\c2cccnc2)C1=O	-1%
COc1ccc(CCNC(=O)c2c(O)c3c([nH]c2=O)CCCC3)cc1	-22%
CC[C@H](C)C(=O)O[C@@H]1C[C@H](C)C=C2C=C[C@H](C)[C@@H](CC[C@H]3C[C@@H](O)CC(=O)O3)[C@H]21	-5%
Cc1cc(C(=O)N/N=C/c2c[nH]c3ccccc23)cs1	-10%
COc1cc(C(=O)OC2CCN(C)CC2)cc(OC)c1OC	-16%
COc1ccc(N(CC(=O)Nc2ccccc2C(=O)NCC(C)C)S(C)(=O)=O)cc1	-22%
CCOc1ccccc1/C=c1\sc2nc(-c3ccco3)nn2c1=O	18µM*
CCC(C(=O)NC1CCCCC1)n1c(SCc2cccc(F)c2)nc2ccncc21 (configuration not stated)	-5%
Cc1cc(C)n(-c2ccc(C(=O)Nc3cc(C(F)(F)F)ccc3N3CCOCC3)cc2)n1	-28%
O=C(COC(=O)/C=C/c1ccccc1Cl)NCc1ccccc1	-4%
COC(=O)c1cc(-c2c(C)oc3cc(OC(C)C)ccc3c2=O)c(C)o1	-25%
CCOc1ccc(OCCN2C(=O)NC3(CCCc4ccccc43)C2=O)cc1 (configuration not stated)	-16%
CCN(CC)c1ccc(NC(=O)COC(=O)C23CCC(=O)N2c2ccccc2S3)cc1 (configuration not stated)	-14%
O=C(CN1C(=O)CC(c2ccccc2)=Nc2ccccc21)NCc1ccco1	-6%
CS(=O)(=O)N(Cc1cc2ccccc2[nH]c1=O)C1CCCCC1	-22%
Cc1ccc(C)c(/C(=N\N=C(N)N)C2CC2)c1	-5%
CCC(=O)NCCn1c(C)cc2ccccc21	-1%
CCCCCC(=O)NC(=S)Nc1ccc(NC(=O)c2ccco2)cc1	?
Cc1nc(NC(=O)/C=C/c2ccc(C(C)(C)C)cc2)sc1C(=O)N(C)C	-10%
COc1ccc(C2/C=C\CC(NC(=O)OCC3c4ccccc4-c4ccccc43)CC(=O)N2Cc2ccccc2F)cc1 (configuration not stated)	-6%
CCOCC(=O)Nc1cc(C(=O)Nc2ccccc2)ccc1Cl	-3%
CC(=O)Nc1sc(NC(=O)c2ccc(Cl)cc2)nc1-c1cccs1	-19%
Cc1cc(C)n(-c2nnc(SCC(=O)NC3CCCC3)c3ccccc23)n1	-19%
Cc1ccc([N+](=O)[O-])cc1NC(=O)c1ccc(-c2ccccc2)cc1	-14%
COCC(=O)Nc1ccc(C)c(Cl)c1	14µM*
COc1ccc(N=C2SC(C(=O)O)CC(=O)N2C)cc1 (configuration not stated)	-6%
Cc1ccc(S(=O)(=O)N2CCC(C(=O)N[C@H](C(=O)N3CCN(C)CC3)C(C)C)CC2)cc1	-4%
O=C(CSc1nc(SCC(=O)NCc2ccccc2)n(-c2ccccc2)n1)NCc1ccccc1	-27%
Cc1cccc(O)c1C	-2%
CC1C/C(=C/c2ccco2)C(=O)/C(=C/c2ccco2)C1 (configuration not stated)	-17%
Cc1ccc(NC(=O)c2ccccc2)cc1	-9%
O=S(=O)(c1ccccc1)N1CCC2(CCCN(Cc3ccccc3)C2)CC1	-5%
Cc1nnc(-c2cnn(-c3ccccc3)c2N)n1Cc1ccncc1	-7%
c1ccc(-c2ccc(-c3ccccn3)nn2)nc1	25µM*
Cc1ccc(C(=O)Nc2ccc(C(=O)N/N=C/c3c[nH]c4ccccc34)cc2)cc1	-24%
O=S(=O)(Cc1ccccc1Cl)NCCOc1ccccc1	-20%
COc1ccc(NC(=O)c2cc(=O)c3ccccc3o2)cn1	-14%
Brc1cccc(-c2nnco2)c1	-22%
N#Cc1cc([N+](=O)[O-])ccc1Oc1cccc(/C=N/NC(=O)c2ccc(Cl)cc2)c1	-11%
CCCc1[nH]nc2c1C(c1cc(OC)ccc1F)C(C#N)=C(N)O2 (configuration not stated)	-15%
COc1cc(C2C(C#N)=C(N)Oc3c2oc(CO)cc3=O)cc(OC)c1OC (configuration not stated)	-8%
CCn1c(CSc2nc3ccccc3s2)nnc1SCC(=O)c1ccc(O)c(O)c1	?
CCOc1cc(N2CCOCC2)c(OCC)cc1NC(=O)c1ccc(=O)n(Cc2ccccc2)n1	-1%
CCc1cc(=O)oc2cc3occ(-c4ccc(OC)c(F)c4)c3cc12	?
CCOCCc1nnc(NC(=O)COC)s1	3%
Clc1ccc2nnnc(-c3ccccc3)c2c1	0%
O=C1C2C3C=CC(C3)C2C(=O)N1/N=C/c1cc(Br)cc([N+](=O)[O-])c1O (configuration not stated)	-15%
CC(C)CC(C(=O)Nc1ccc2c(c1)OCCO2)N1C(=O)c2ccccc2C1=O (configuration not stated)	-10%
CCOC(=O)N1CCN(c2c(N3CCN(c4ccccc4OC)CC3)c(=O)c2=O)CC1	-8%
O=C(c1ccco1)N1CCN(C(=O)c2cc(-c3ccccc3)nc3ccccc23)CC1	-13%
CC(CCc1nc2ccccc2s1)(c1ccc(O)cc1)c1ccc(O)cc1	?
COc1ccc(/C(O)=C2\C(=O)C(=O)N(c3cc(C)on3)C2c2ccc(OC)c(OC)c2)cc1OC (configuration not stated)	-6%
O=C(Nc1nccs1)c1cc(-c2ccco2)nc2ccccc12	-30%
Nn1c(SCC(=O)Nc2ccc(F)cc2)nnc1-c1cccnc1	-1%
O=S(=O)(NCCc1ccccc1)c1cccc(S(=O)(=O)N2CCOCC2)c1	-2%

An excerpt; rates above refer to the full screens.
